Sa ugtP lethal: kills S. aureus RN4220 lacking UgtP; S. aureus RN4220 ugtP deletion, OD600 growth, 16 h; some inactives read as strong as hits; growth inhibition, % (test concentration not listed); 330,000 tested, 0.54% active;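 active = z-score under -3 and OD600 up to 0.15 on both plates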;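 note: plate controls were untreated wells for no effect and antibiotic for full effect; wells of about 80 µL received 100 nL stock; the first replicate is given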
Sa RN4220 lethal: kills Staphylococcus aureus RN4220; S. aureus RN4220 growth, OD600, 16 h; inhibition, % (no concentration beside the values); 330,000 tested, 0.33% active;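 active = z-score of -3 or lower and OD600 up to 0.18 on both plates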;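 note: plate controls were untreated cells for no effect and reference antibiotic for full effect; stock transfer was 100 nL into about 80 µL; one replicate is shown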
BJeLR lethal: BJeLR cell viability loss | BJeLR (HRASV12) viability, CellTiter-Glo ATP luminescence, 48 h; reference of the scale not given here | inhibition, % (test concentration not listed) | 300,000 tested, 0.17% active;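 active = replicate mean above 50%; inconclusive = above 50% but judged a plate artefact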;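 note: 50 nL library stock added to about 25 µL; numbers are from one replicate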
Mtb hypoxia rep: Mtb hypoxia fluorescent reporter inhibition. fluorescence inhibition, % (concentration not given with the values). AID 1159583. M. tuberculosis hypoxia-regulated fluorescent reporter, fluorescence. 300,000 tested, 0.1% active;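 active = 35 to 45% if threefold the growth effect, above 45% if 1.5-fold the growth effect; inactive = the rest, general growth blockers included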;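 note: wells of about 50 µL received 100 nL stock; 0% = vehicle wells and 100% = reference inhibitor wells; whole bacteria with a GFP reporter of the hypoxia response; strong numbers were not always called active; many hits fall short of the cut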
Bead autofluor: counter-screen for toxin protease inhibitors: compound fluorescence | compound autofluorescence counterscreen, microsphere flow cytometry; active compounds read high | fluorescence intensity (no concentration beside the values) | AID 624483 | 360,000 tested, 3.1% active;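 active = at least 3 SD above the mean of all compounds, about 16000 in these data; inconclusive = too few beads counted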;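 note: 100 nL of 1 mM stock went into each well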
PrP 5UTR inh: suppresses PrP 5' UTR mRNA reporter expression | 340,000 tested, 0.35% active | cell-based PrP 5' UTR mRNA reporter, plate reader | inhibition, % (concentration not given with the values);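 active = every replicate at 50% or more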;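 note: 0 = median of the neutral control wells; tested in H4 reporter cells; numbers are from one replicate; inactives centre near -14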
Mtb hypoxia rep growth: recorded beside Mtb hypoxia rep, whose call it bears; growth inhibition, %; measured here: M. tuberculosis growth (absorbance);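 0% = vehicle and 100% = reference antibiotic; read after six days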
* marks the source's active call; other numbers are inactive results; ? = inconclusive; / = no result given.

Value order – Sa ugtP lethal	Sa RN4220 lethal	BJeLR lethal	Mtb hypoxia rep	Mtb hypoxia rep growth	Bead autofluor	PrP 5UTR inh
- Cc1ccc(S(=O)(=O)CCCS(=O)(=O)c2ccc(C)cc2)cc1
 : -1.4	2.6	-0.2	2.0	-4.6	9819	-14.5
- Cc1ccc(-n2ncc3c(=O)n(CC(=O)NCc4ccco4)cnc32)cc1
 : 0.5	2.0	-1.5	8.7	19.0	4376	-40.4
- Cn1c(C(=O)NCc2ccco2)cc2c(=O)[nH]c3ccccc3c21
 : -1.9	-0.8	-4.4	1.0	6.5	9344	-34.6
- CCOC(=O)c1sc(=NC(=O)c2cccc(OC)c2)n(C)c1C
 : -0.2	-3.0	0.6	12.9	1.9	7300	-174.1
- COc1ccc(-c2nc(NC(=O)Cn3ccc(C(F)(F)F)n3)sc2C)cc1
 : -33.1	-4.7	13.2	10.2	6.6	3115	2.9
- COc1ccccc1NS(=O)(=O)c1cc(NC(C)=O)ccc1N1CCCCC1
 : -0.4	-2.2	3.1	-10.2	-7.7	3479	5.9
- CCn1c(CSCc2c(Cl)cccc2Cl)n[nH]c1=S
 : -1.8	0.4	-3.2	4.8	9.8	5077	-5.5
- CCCCn1nc(NC(=O)COC)c2cc3cc(OC)ccc3nc21
 : 14.3	3.6	0.4	-3.3	3.2	3385	-19.9
- Cc1cccc(C)c1NC(=O)COC(=O)CN1C(=O)C2CCCCC2C1=O (configuration not stated)
 : 6.0	6.7	/	7.1	2.8	4185	-15.0
- COc1cccc(C(=O)Nc2cccnc2)c1
 : 7.8	9.5	-1.8	10.3	-0.3	2735	-16.5
- OCCCc1cn(Cc2ccccc2)c2ccccc12
 : 19.8	2.4	-8.2	10.1	11.8	3810	-39.9
- CCCCn1c(N)c(N(CC(C)C)C(=O)C2=NN(c3cc(C)ccc3C)C(=O)CC2)c(=O)[nH]c1=O
 : 2.1	-0.2	-4.3	-5.2	1.0	4686	6.5
- O=C(CCN1C(=O)c2ccccc2S1(=O)=O)NCc1ccccc1
 : 6.9	1.8	9.6	10.8	5.9	5705	-16.3
- CCOc1nc2cnccc2n(CC(=O)Nc2ccc(C)c(C)c2)c1=O
 : 3.9	1.8	1.0	-8.9	-13.0	6028	-16.2
- COC(CNc1cc(=O)oc2ccccc12)OC
 : -0.1	1.4	0.9	/	/	5206	-19.1
- CCN(CC)C1CCN(C(=O)c2cc(COc3cccc4cccnc34)on2)C1 (configuration not stated)
 : 3.2	1.0	2.9	2.7	6.2	6071	3.1
- CC(=O)Nc1ccccc1C(=O)N1CCN(Cc2ccccc2)CC1
 : -9.5	1.1	3.5	-6.0	4.6	4867	4.7
- O=c1nc(N/N=C/c2c[nH]c3ccccc23)cn[nH]1
 : /	/	-7.4	/	/	5181	-29.6
- Cc1ccc(NC(=O)c2noc(C(C)C)c2[N+](=O)[O-])cc1
 : 9.0	24.2	1.7	1.8	-2.4	2314	-29.0
- COc1ccc(CCNC(=O)c2cc3sc(Cl)cc3n2C)cc1OC
 : 19.2	24.7	0.0	10.6	10.8	4361	-7.3
- Cc1ccccc1C(=O)c1cn[nH]c1-c1ccccc1O
 : 0.7	5.7	-6.3	1.4	3.7	3881	-23.6
- CN(CC(=O)Nc1ccccc1Cl)C(=O)COC(=O)C1CC1
 : 4.0	2.2	3.2	8.2	-3.4	?	-20.6
- N#CCSc1nnc(-c2c[nH]c3ccccc23)o1
 : 0.1	8.8	3.0	4.8	2.9	5141	-2.0
- Cc1oc(C=NNS(=O)(=O)c2ccccc2)cc1Br
 : -12.6	14.7	/	1.0	6.1	/	/
- COC(=O)Cn1nnc(-c2cccc(OC)c2)n1
 : -0.9	2.6	3.1	-7.1	14.0	8861	-17.2
- COc1ccc(NC(=O)COc2ccccc2C)cc1S(=O)(=O)N1CCCCC1
 : -2.6	4.5	2.7	-0.2	-3.9	5356	-20.3
- CCCCn1c(N)c(N(CC(C)C)C(=O)c2ccc(-n3c(C)ccc3C)cc2)c(=O)[nH]c1=O
 : 16.4	5.5	-11.2	10.3	11.3	4980	-20.2
- O=S(=O)(c1ccc(-c2ccon2)s1)N1CCOCC1
 : 2.0	4.1	-3.5	12.0	-7.4	3860	-22.6
- CCn1c(C)nc2cc(S(=O)(=O)Nc3ccc(C)cc3)ccc21
 : -3.8	11.2	3.4	5.9	5.0	4863	-1.2
- CCc1ccccc1NC(=O)Cn1nnc(-c2cccnc2)n1
 : -5.0	0.3	-1.4	-5.5	17.2	22832*	-3.4
- N#C/C(=C\c1cccs1)c1nc2ccccc2[nH]1
 : -7.8	2.7	-12.0	-0.7	-4.4	2041	-61.5
- CC(NCC(=O)NCC(=O)Nc1ccc(F)cc1)c1cccc(C(F)(F)F)c1 (configuration not stated)
 : -5.4	-2.0	/	-14.6	4.2	8551	-16.9
- COc1ccccc1N1CCN(C(=O)CSc2nnc(NC(=O)c3ccco3)s2)CC1
 : -8.3	3.0	1.7	1.9	11.5	9342	-23.1
- COCC(=O)NCCNc1nc2ccc(C)cc2cc1C
 : 2.6	1.7	-3.3	/	/	3470	-10.7
- COc1ccc(NC(=S)Nc2ncccc2C)cc1OC
 : -3.4	3.6	-8.0	5.9	7.5	2570	-29.2
- Oc1ccc2nnc3c(Br)cnn3c2c1
 : /	/	2.1	/	/	2951	-20.5
- C=C(C)Cn1c(SCC(=O)NN=Cc2ccccc2)nc2ccccc2c1=O
 : -6.8	2.5	/	2.0	13.5	/	/
- Cc1ccc(NC(=O)Cc2cn(C)c3ccccc23)cc1F
 : 6.9	-0.5	-0.1	1.8	1.8	1897	-8.9
- COc1ccc(CCNC(=S)NC(=O)c2cc(OC)c(OC)c(OC)c2)cc1OC
 : -5.0	2.7	2.9	-12.2	1.2	5980	-12.5
- Nc1nc(-c2ccccc2)c(N=Nc2cccnc2)s1
 : 1.5	6.0	10.4	21.1	3.7	3759	8.5
- C=CCn1c(O)c(CN2CCOCC2)c(C)c(C#N)c1=O
 : -4.0	-14.5	-3.6	17.1	8.0	3110	-8.4
- Cc1cccc(OCc2nnc(SCC(=O)Nc3ccc(C)c(C)c3)o2)c1
 : 3.9	0.1	0.5	0.2	8.1	8868	-3.2
- O=C(CNS(=O)(=O)c1ccc(Br)cc1)N1CCOCC1
 : -8.2	1.4	-2.2	2.9	4.6	22354*	-37.8
- CCOC(=O)N1CCN(C2OC(=O)c3ccccc32)CC1 (configuration not stated)
 : -9.9	22.3	6.6	/	/	3585	-9.4
- COc1cccc(-c2csc(N3CCN(C(=S)NCC(C)C)CC3)n2)c1
 : /	/	-2.4	/	/	3202	-3.9
- CCOc1ccccc1NC(=O)CSc1nnc(CNC(=O)c2c(F)cccc2Cl)o1
 : 1.8	-0.1	-8.3	3.0	9.4	5455	0.2
- CCOC(=O)c1c(-n2cnnn2)sc(C)c1C
 : -3.6	5.4	3.0	2.7	5.3	20255*	-17.2
- O=C(NN=Cc1ccco1)c1cnccn1
 : 6.8	1.5	/	13.4	4.1	/	/
- Cc1ccc2c(c1)C1CN(C)CCC1N2Sc1ccccc1[N+](=O)[O-] (configuration not stated)
 : /	/	0.6	/	/	4062	-18.7
- Cc1ccc(-c2nn(C)c(=O)c3ccccc23)cc1CN1CCCCC1
 : -1.0	1.5	4.3	8.8	-1.7	3744	-33.1
- O=C(CSCc1ccc(C(=O)O)cc1)Nc1ccc2ccccc2c1
 : 8.4	5.1	-3.4	10.0	18.7	/	-21.8
- Cn1cc(S(=O)(=O)N2CCCC2)cc1C(=O)NCc1ccccc1
 : 1.3	2.3	-4.6	3.8	4.0	5873	-7.8
- CCCCN(Cc1ccccc1)c1ncnc2nc[nH]c12
 : 7.9	1.8	7.5	7.2	7.1	6040	-45.9
- COc1ccc(-c2noc(CCC(N)=O)n2)cc1OC
 : -6.1	-0.3	12.6	-8.5	-3.6	22164*	-20.4
- COc1ccccc1-c1cc(C(=O)Nc2ccc(F)cc2F)no1
 : -8.8	-2.5	0.3	-2.9	5.6	20081*	-71.0
- COc1ccc(S(=O)(=O)N2CCN(CCC(=O)Nc3ccc(F)cc3)CC2)cc1
 : 3.4	2.5	5.6	7.0	-1.2	8046	-18.0
- CCOC(=O)N1CCC(=NNC(=O)c2ccc(O)cc2)CC1
 : -4.0	-6.6	-4.2	-3.3	5.6	2219	-0.5
- O=C(NN=Cc1c[nH]c2ccccc12)c1ccccc1
 : -2.2	3.8	/	12.0	0.0	/	/
- COCCN1C(=O)/C(=C/c2ccc(Oc3ccc([N+](=O)[O-])cn3)c(OC)c2)SC1=Nc1ccccc1
 : 8.8	4.1	1.9	2.2	-4.5	9993	-21.1
- Cc1ccc(/C=C2/NC(=O)N(Cc3ccc(Br)cc3)C2=O)o1
 : -4.2	0.9	-13.3	-1.9	11.7	2571	-66.1

In a second layout: two of the compounds above.
canonical_smiles | Sa ugtP lethal | Sa RN4220 lethal | BJeLR lethal | Mtb hypoxia rep | Mtb hypoxia rep growth | Bead autofluor | PrP 5UTR inh
Cc1ccc(NC(=O)Cc2cn(C)c3ccccc23)cc1F | 6.9 | -0.5 | -0.1 | 1.8 | 1.8 | 1897 | -8.9
COc1ccc(CCNC(=S)NC(=O)c2cc(OC)c(OC)c(OC)c2)cc1OC | -5.0 | 2.7 | 2.9 | -12.2 | 1.2 | 5980 | -12.5

(listing goes on)
Value order – Sa ugtP lethal	Sa RN4220 lethal	BJeLR lethal	Mtb hypoxia rep	Mtb hypoxia rep growth	Bead autofluor	PrP 5UTR inh
- Cc1nn(CC(=O)NCCc2cccs2)c(=O)c2cc3ccccc3n12
 : 0.4	4.4	-2.1	-3.7	5.7	5756	0.8
- CC(C)(C)N1[C@@H](CC(=O)O)c2cc(C(F)(F)F)ccc2S1(=O)=O
 : /	/	-2.0	/	/	3984	-2.9
- Cc1cc(C)cc(-n2ccnc2SCC(=O)c2c(N)n(C3CC3)c(=O)[nH]c2=O)c1
 : 1.3	-1.0	/	-4.1	0.6	3369	-10.1
- COc1ccc(-c2cc3nc(C)n(N)c(=O)c3s2)cc1
 : 1.9	3.5	98.8*	8.3	-3.6	3643	90.6*
- O=C(CN1CCCC1)NCC1(c2ccccc2)CCOCC1
 : 3.7	1.9	5.6	16.6	1.8	13072	-2.3
- Cc1ccc(S(=O)(=O)N2CCC(C(=O)OCC(=O)N(C)Cc3ccccc3)CC2)cc1C
 : 10.8	9.8	1.5	-1.1	-4.9	4372	-2.0
- CC(C)c1nnc(NC(=O)c2cccc(-n3cnnn3)c2)s1
 : -12.2	22.2	-5.1	-6.1	1.4	3269	-14.1
- CC(NC(=O)C(=O)NCCN1CCN(C(=O)c2ccc([N+](=O)[O-])cc2)CC1)c1ccccc1 (configuration not stated)
 : -0.4	4.0	-3.3	7.5	0.6	5701	-13.1
- COc1ccc(C(=O)N2CCN(CCNC(=O)C(=O)Nc3ccc(Br)cc3)CC2)cc1
 : -1.4	8.9	0.2	13.6	3.4	5060	-6.8
- CCCCNC(=O)CCn1nc(-c2ccc(Cl)cc2)ccc1=O
 : -0.7	1.3	-2.1	-2.2	-1.5	2858	-2.8
- Cn1ccc(CC(=O)N2CCC(N3CCC(C(=O)N4CCCC4)CC3)CC2)c1
 : 3.1	1.2	-0.5	1.3	6.4	4902	-23.8
- CCCNC(=O)OCC1OC(CCON=CCC2C=CC(OC(C)=O)C(COC(C)=O)O2)C=CC1Oc1ccc(OC)cc1 (configuration not stated)
 : 2.7	6.2	/	-1.1	4.9	/	/
- Cc1c(Cl)cccc1NC(=O)Cn1c(CCC(=O)O)ccc1-c1ccccc1
 : 2.1	9.7	-4.6	6.1	-3.0	4011	/
- Cc1ccc(C(C)C)c(OCCCN2C(=O)NC(C)(C)C2=O)c1
 : -5.8	5.7	-3.9	-0.5	4.8	14440	-1.3
- CC(=O)Nc1ccc(N=Cc2ccc[nH]2)cc1
 : 2.5	1.3	/	3.9	10.3	9268	-9.9
- C=CCn1c(SCC(=O)Nc2nc(C)cs2)nnc1C(C)NC(=O)c1ccccc1Cl (configuration not stated)
 : 7.4	5.2	-1.6	9.1	0.1	/	-8.5
- Cc1ccc2nc(NC(=O)C3CSC4(C)CCC(=O)N34)sc2c1 (configuration not stated)
 : 0.9	-0.7	1.9	0.0	-6.9	6382	-46.6
- CCCC1C(=O)N(Cc2ccccc2)C(=O)CC1C (configuration not stated)
 : 5.1	10.8	7.0	8.1	10.8	3430	-20.6
- CC1=CC(C)(C)N=C(Nc2nc(C)c3cc(C)cc(C)c3n2)N1
 : 7.7	5.6	0.3	22.6	3.3	6348	-4.5
- CCOC(=O)N1CCN(CC(=O)c2ccc(O)cc2O)CC1
 : 4.1	1.9	3.6	12.9	-1.6	6105	-23.9
- CN1CCN(CC#CCC(O)(c2ccccc2)c2ccccc2)CC1
 : 6.0	-0.2	16.4	6.9	2.0	3632	-33.1
